Ecoli growth = inhibitors of Escherichia coli growth. OD600, 23 h; hits give low values. hit rate 0.21% among 330,000. OD600 absorbance (concentration not given with the values);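 active means OD600 absorbance below the run mean of sample wells minus 3.6 SD, in any replicate, cut at about 0.56 in these data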;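 further: stock transfer was 300 nL into about 60 µL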
Numbers without * were called inactive; & = joins results of further samples. Only part of the results is shown; rates above refer to the full screens.

compound | Ecoli growth
CCCCOCCCNC(=O)NC(C(=O)OC)C(C)C (stereo not given) | 0.65
CC1CCC(=O)N(CC(C)CSc2ccccc2)CC1 (stereo not given) | 0.66
CN1CCN(C(=O)C2=CC(C(C)(C)C)CC(OCCCCO)O2)CC1 (stereo not given) | 0.68
CC(C)C1COCCS(=O)(=O)N1Cc1ccccc1 (stereo not given) | 0.67
N#Cc1ccc(C23CC4(C2)C(CN(CC2CCCCC2)C4c2ccccc2)C3c2ccccc2)cc1 (stereo not given) | 0.7
CC1CN(C(C)CO)C(=O)c2cccc(NC(=O)C3CC3)c2OC1CN(C)Cc1ccc(Oc2ccccc2)cc1 (stereo not given) | 0.72
C=CCC(CC(=O)NCCO)C(=O)NC(COC(=O)C(CC=C)CC(=O)OC(C)(C)C)Cc1c[nH]c2ccccc12 (stereo not given) | 0.67&0.68&0.67&0.68
OCCC1CC(O)C(O)[C@]2(OCCCc3ccccc32)O1 (stereo not given in full) | 0.62&0.67
C=CCN(C(CC(C)C)C(=O)OC)S(=O)(=O)N(CC=C)C(CC(C)C)C(=O)OC (stereo not given) | 0.68
CCN1C(=O)NC(c2ccc(Br)cc2)C(C(C)=O)=C1C (stereo not given) | 0.65
CCCCN1CCC2C=CCC(C(=O)Nc3ccc(OC)cc3)C2C1=O (stereo not given) | 0.69
CC(C)(C)OC(=O)Nc1ccc(C(NC(=O)OC(C)(C)C)C(=O)OC(C)(C)C)cc1 (stereo not given) | 0.67
CCOC1OC(C(N)=O)=CC(c2ccc(Br)cc2)C1CCCO (stereo not given) | 0.71
CC(C)NC(=O)N(C)CC1Oc2ccc(NC(=O)Nc3ccccc3)cc2C(=O)N(C(C)CO)CC1C (stereo not given) | 0.69
CCN1C(=O)C2C(c3ccc(-c4ccc(Cl)c(Cl)c4)c(OC)c3)N[C@@](Cc3ccccc3)(C(=O)OC)C2C1=O (stereo not given in full) | 0.74
N#Cc1ccc(C2=CC(=O)CC(c3ccc(Cl)cc3)C2)cc1 (stereo not given) | 0.62
CC(C)CCCN1C(Nc2ccccc2)=NCC1C (stereo not given) | 0.68
CN(C)c1ccc(C=C(C(=O)c2ccc(Cl)cc2Cl)n2cncn2)cc1 | 0.68
NC(=O)C1CC2(CC(c3cccc(NC(=O)C4CCC(=O)N4)c3)=NO2)CN1C(=O)c1ccccc1 (stereo not given) | 0.67
CC(=O)OCC1OC(CC=NOC2OC(COC(C)=O)C(OC(C)=O)C(OC(C)=O)C2OC(C)=O)C=CC1OC(C)=O (stereo not given) | 0.69

Taken from above:
Result for OCCC1CC(O)C(O)[C@]2(OCCCc3ccccc32)O1 (stereo not given in full) in Ecoli growth: 0.62&0.67
Result for NC(=O)C1CC2(CC(c3cccc(NC(=O)C4CCC(=O)N4)c3)=NO2)CN1C(=O)c1ccccc1 (stereo not given) in Ecoli growth: 0.67
Result for CC(C)CCCN1C(Nc2ccccc2)=NCC1C (stereo not given) in Ecoli growth: 0.68
Result for CCCCOCCCNC(=O)NC(C(=O)OC)C(C)C (stereo not given) in Ecoli growth: 0.65
Result for CCCCN1CCC2C=CCC(C(=O)Nc3ccc(OC)cc3)C2C1=O (stereo not given) in Ecoli growth: 0.69

(cont.)
compound | Ecoli growth
CC(C)(C)OC(=O)N1CCCC1CO (stereo not given) | 0.67
CCOC1OC(C(=O)N2CCOCC2)=CC(C)C1CCCO (stereo not given) | 0.62&0.7
O=C(C(Cc1ccc(Cl)cc1)NS(=O)(=O)c1ccccc1)N1CC[C@@]2(O)CCCCC2C1 (stereo not given in full) | 0.71
N#CCC(Cc1ccccc1)N1CCN(Cc2ccccc2)CCC1=O (stereo not given) | 0.66
CCOC(=O)C1C2COc3ccc(OC)cc3C2N2C(=O)CN(CCc3c[nH]c4ccccc34)C(=O)[C@@]12C (stereo not given in full) | 0.64
CC(C)(C)OC(=O)CC1CC=CCC(CC(=O)NCCO)C(=O)NC(c2ccccc2)COC1=O (stereo not given) | 0.7&0.72
O=C(C=Cc1ccc(Cl)c([N+](=O)[O-])c1)Nc1cccc(NC(=O)c2ccco2)c1 | 0.71
O=C(Nc1ccc(Cl)c(C(F)(F)F)c1)C1CC=CC2CCN(Cc3ccccc3)C(=O)C21 (stereo not given) | 0.71
CC#CCN1c2ccccc2[C@]23CC(C(=O)OC)N(C(=O)c4cc(C)oc4C)C2=NC(C(=O)OC)=C(C(=O)OC)C13 (stereo not given in full) | 0.71
CCC(C)Sc1ccc(C2C3C(=O)N(CC)C(=O)C3[C@]3(C(=O)OC)CCCCN23)cc1OC (stereo not given in full) | 0.69
Nc1cc(=O)[nH]c(SCC=Cc2ccccc2)n1 | 0.69
O=C(CC1CC=CCCC(=O)OCC2CCCN2C1=O)NC(CO)Cc1ccccc1 (stereo not given) | 0.71&0.66
CCCCC1CCCO[C@@](C(=O)NCc2ccccn2)(C(F)(F)F)C1 (stereo not given in full) | 0.63
CCOC1OC(C(=O)N2CCN(C)CC2)=CC(c2coc3ccccc3c2=O)C1CCCO (stereo not given) | 0.72&0.7
CCOC1OC(C(=O)NC2CC2)=CC(c2coc3ccccc3c2=O)C1CCCO (stereo not given) | 0.71&0.66
Cc1ccc(-c2cc(C(=O)NN=CC=Cc3ccccc3)n[nH]2)o1 | 0.7
COc1ccc(CN2CC(=O)N3C4c5ccccc5OCC4C(c4ccccc4)[C@]3(C)C2=O)cc1 (stereo not given in full) | 0.68
CC1CN(C(C)CO)C(=O)c2cc(NC(=O)NC3CCCCC3)ccc2OC1CN(C)C(=O)NC1CCCCC1 (stereo not given) | 0.7
CN(C)C(CO)c1nnc(C(Cc2ccc(O)cc2)NC(=O)C2CCNCC2)o1 (stereo not given) | 0.63
CCCN1C(=O)C(=Cc2cc(C)n(C)c2C)SC1=Nc1ccc(OC)cc1 | 0.74

Filtered by structure, the compounds so far containing fluorine
compound | Ecoli growth
O=C(Nc1ccc(Cl)c(C(F)(F)F)c1)C1CC=CC2CCN(Cc3ccccc3)C(=O)C21 (stereo not given) | 0.71
CCCCC1CCCO[C@@](C(=O)NCc2ccccn2)(C(F)(F)F)C1 (stereo not given in full) | 0.63

Later entries.
compound | Ecoli growth
CC1NS(=O)(=O)C2CC3C=C[C@]2(O3)C1OC(=O)c1ccc(C(C)(C)C)cc1 (stereo not given in full) | 0.63
CCOC(=O)c1c(NC(=O)C=CC(=O)O)sc(C)c1-c1ccccc1 | 0.66
O=C(O)[C@]1(S(=O)(=O)c2ccccc2)CC2ON=C(c3cccc(Br)c3)C2C1 (stereo not given in full) | 0.71
CC1C(Sc2ccccc2)CC(=O)OC1c1ccc(-c2ccccc2)cc1 (stereo not given) | 0.7
COc1cc(-c2noc(C)c2C=Cc2cccc([N+](=O)[O-])c2)cc(OC)c1OC | 0.73
O=C(O)CC1c2ccccc2S(=O)(=O)N1C1CCCC1 (stereo not given) | 0.72
COC(=O)C1=C(C)N(Cc2ccccc2)C(=S)NC1c1ccccc1 (stereo not given) | 0.72
O=C(C=CNc1ccccc1Br)c1ccccn1 | 0.7
CC(NC(=O)c1nc[nH]c1C(=O)NC(C)C(=O)OC(C)(C)C)C(=O)OC(C)(C)C (stereo not given) | 0.66
Cc1cccc(N2C(=O)N3C(c4ccc(Br)cc4)C4C(=O)N(C(C)(C)C)C(=O)C4[C@]3(Cc3ccc(Cl)cc3)C2=O)c1 (stereo not given in full) | 0.69
Cc1cccc(C(NC(=O)OC(C)(C)C)C(=O)OC(C)(C)C)c1 (stereo not given) | 0.65&0.64
COc1cc(C=Cc2ccc3cccc([N+](=O)[O-])c3n2)ccc1OCC#N | 0.68
N#CC(=Cc1ccc(N2CCOCC2)o1)C(=O)N1CCOCC1 | 0.7
CC1CCN(C(=O)c2[nH]cnc2C(=O)NC(C)C(=O)OC(C)(C)C)CC1 (stereo not given) | 0.69
COC1OC2O[C@@]3(C)CCC4C(C)CCC(C1C)[C@@]24OO3 (stereo not given in full) | 0.36*
COc1ccc(C2CC(=O)C=C(c3ccc(C(F)(F)F)c(C(F)(F)F)c3)C2)cc1OC (stereo not given) | 0.71
CCN1C(=O)C2C(c3ccc(C)cc3)N3C(=O)N(c4cccc(F)c4)C(=O)[C@@]3(C)C2C1=O (stereo not given in full) | 0.64
O=C(NC1CC1)C1=CC(c2c[nH]c3ccccc23)CC(OCCCCO)O1 (stereo not given) | 0.71&0.72
CC(=NNC(=O)c1c(Br)c(C)nn1C)c1cccc(NC(=O)C2CCC2)c1 | 0.72
NC(=O)C1CCNc2c(I)cc([N+](=O)[O-])cc2C(=O)NC(CCC(=O)O)C(=O)NC(CO)C(=O)N1 (stereo not given) | 0.72

SMILES	Ecoli growth
C#CCOCCOCCOCCNc1nc(N2CCN(C(=O)CCCCCCCCCCNC(=O)C(CCSC)n3cc(CCO)nn3)CC2)nc(N2CCN(C(=O)CCCCCCCCCCNC(=O)C(CCSC)n3cc(CCO)nn3)CC2)n1 (stereo not given)	0.73
C=CCOC(=O)C1=CC(c2cn(C(C)=O)c3ccccc23)CC(OCc2ccc(CO)cc2)O1 (stereo not given)	0.64&0.69
O=C(CCN1C(=O)C(=Cc2ccc3c(c2)OCO3)SC1=S)NNC(=O)c1cccnc1	0.72
OCC1OC(n2cnc3c(NC4CCCC4)nc(Cl)nc32)C(O)C1O (stereo not given)	0.66
Cc1noc(C)c1S(=O)(=O)N(C)CC1Oc2ccc(NC(=O)C3CC3)cc2C(=O)N(C(C)CO)CC1C (stereo not given)	0.68
CC(C)CC(CO)N1CCN(Cc2cccc(C#N)c2)CCC1=O (stereo not given)	0.71
CC1NC(=O)N(C)C2NC(=O)N(C)C(c3ccc([N+](=O)[O-])cc3)C12 (stereo not given)	0.71
COCCN1C(=O)NC(c2ccccc2)C(C(=O)OC)=C1C (stereo not given)	0.69
Cc1ccc(CNC(=O)C2CC2C(NP(=O)(c2ccccc2)c2ccccc2)c2ccccc2)o1 (stereo not given)	0.71
C#CCNC(=O)C1=CC(c2coc3ccccc3c2=O)CC(OCc2ccc(CO)cc2)O1 (stereo not given)	0.72&0.69
COC(=O)c1sccc1NC(=O)C=Cc1ccc(Cl)cc1	0.71
CC1C=C(C(=O)NC2CC2)OC(OCc2ccc(CO)cc2)C1 (stereo not given)	0.67&0.64
CC1CCc2nc(C(C#N)=Cc3cccnc3)sc2C1 (stereo not given)	0.64
CCN1CC2C3C(=O)N(Cc4ccccc4)C(=O)C3[C@](Cc3ccccc3)(C1=O)N2C(=O)c1ccc(C)cc1 (stereo not given in full)	0.67
COC(=O)C1=CC(C(=O)OC)C2C3=C(C(=O)[C@@]2(C)NC(=O)c2ccccc2)C(c2ccccc2)C2C(=O)NC(=O)C2C3C1 (stereo not given in full)	0.7
CCC(C)C(CNC)NCC(Cc1ccc(O)cc1)NCC(C)(C)C (stereo not given)	0.71
CC=C(C)C(=O)N1CC2(CC(c3cccc(NC(=O)CCCCC)c3)=NO2)CC1C(N)=O (stereo not given)	0.67
O=C(COC(=O)C=Cc1cccs1)Nc1cccc(S(=O)(=O)N2CCCC2)c1	0.67
O=C(NC(Cc1ccccc1)C(=O)CCl)OCc1ccccc1 (stereo not given)	0.68
O=C(Nc1ccccc1)C1CC=CC2CCN(Cc3ccccc3)C(=O)C21 (stereo not given)	0.71
COc1ccc(NC(=O)N(C)CC2Oc3c(NS(=O)(=O)c4ccc(OC)cc4)cccc3C(=O)N(C(C)CO)CC2C)cc1 (stereo not given)	0.69
CC(C)C(CO)N(Cc1cccc(F)c1)c1nc(Nc2cccc(Cl)c2)c2ncn(C(C)C)c2n1 (stereo not given)	0.65
O=C1NC(Cc2cn(S(=O)(=O)c3ccc([N+](=O)[O-])cc3)c3ccccc23)C(=O)NC1Cc1ccccc1 (stereo not given)	0.63
C#CCOCCOCCOCCNc1nc(N2CCN(C(=O)C(CCC(=O)O)n3cc(C(N)Cc4ccc(O)cc4)nn3)CC2)nc(N2CCN(C(=O)C(C(C)CC)n3cc(C(N)CO)nn3)CC2)n1 (stereo not given)	0.69
CCOC1OC(C(=O)NCc2nc3ccccc3[nH]2)=CC(C2CC2)C1CCCO (stereo not given)	0.67

An excerpt from above in order of molar mass, lowest first.
SMILES	Ecoli growth
O=C(NC(Cc1ccccc1)C(=O)CCl)OCc1ccccc1 (stereo not given)	0.68
O=C(Nc1ccccc1)C1CC=CC2CCN(Cc3ccccc3)C(=O)C21 (stereo not given)	0.71
C=CCOC(=O)C1=CC(c2cn(C(C)=O)c3ccccc23)CC(OCc2ccc(CO)cc2)O1 (stereo not given)	0.64&0.69

Carrying on:
SMILES	Ecoli growth
CC1CN=C2N1CC(Cc1ccc(O)cc1)N2CCNC(=O)CCC1CCCCC1 (stereo not given)	0.62&0.67
CCOC1OC(C(=O)Nc2ccccc2)=CC(c2ccc(C(F)(F)F)cc2)C1CCCO (stereo not given)	0.68&0.7
NC(=NOC(=O)Cc1ccc(Cl)cc1)c1ccccn1	0.67
CC1CN(C(C)CO)C(=O)c2cccc(NC(=O)C3CC3)c2OC1CN(C)Cc1ccc(C(F)(F)F)cc1 (stereo not given)	0.61
CC(=O)OCC(=O)[C@@]12OC3(CCCC3)OC1CC1C3CCC4=CC(=O)C=C[C@]4(C)[C@@]3(F)C(O)C[C@@]12C (stereo not given in full)	0.65
C=C1CCN(C(CC(C)C)C(=O)NCCC(C)C)S(=O)(=O)c2ccccc21 (stereo not given)	0.67
O=C1C=C(c2ccccc2Oc2ccccc2)CC(c2ccc3c(c2)OCO3)C1 (stereo not given)	0.74
COc1ccc(C2C=CCN(C(=O)Nc3ccccc3-c3ccccc3)CC(=O)N2Cc2ccc(F)cc2)cc1 (stereo not given)	0.72
CC(C)CC(CO)N1CCNCCC1=O (stereo not given)	0.69
C[C@@]12C(=O)NCC(=O)N1C1c3cc(Br)ccc3OCC1C2c1ccccc1 (stereo not given in full)	0.64
CC1CN(C(C)CO)C(=O)c2cccc(NS(=O)(=O)c3cccs3)c2OC1CN(C)C(=O)Nc1ccc(C(F)(F)F)cc1 (stereo not given)	0.69
CCOC(=O)C1C2COc3cc(OC)ccc3C2N2C(=O)CN(Cc3ccccc3)C(=O)[C@@]12C (stereo not given in full)	0.62
COc1ccc(C=NNC(=O)c2ccc(Cn3cc([N+](=O)[O-])cn3)o2)c(OC)c1C	0.72
COc1ccc(C2CC(=O)C=C(c3ccc(F)cc3OCc3ccccc3)C2)cc1OC (stereo not given)	0.7
O=C(NCC1CC1)C1(C(F)(F)F)CC(=CCc2ccccc2)CCCO1 (stereo not given)	0.69
COc1cc(C=CC(=O)N2CCN(CC(O)COc3ccccc3)CC2)cc(OC)c1OC (stereo not given)	0.68

Bioassay records as filed in PubChem BioAssay.
